Assay outcomes as filed in PubChem.
Vaccinia inh: blocks a specific stage of Vaccinia orthopoxvirus infection; actives 0.01% (n = 89,000); activity change (mCherry), % (concentration not given with the values); Vaccinia-infected cells, mCherry/Venus stage reporter fluorescence; stronger effect = lower value; some inactives read as strong as hits;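 active = mCherry past -33% and 40 or more points under the early reporter, replicates agreeing; inconclusive = past -33% without that gap or agreement; tested in A549 cells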;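 also: scaled between vehicle wells and reference inhibitor wells; 23 nL library stock went into each well; one replicate is shown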
Vaccinia inh Venus: second read-out of Vaccinia inh, no call of its own (marks repeat the call); activity change (Venus), %; measured here: Venus reporter, other viral stage;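 negative = less Venus signal; first of two replicates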
Starred values were filed as active, the others as inactive; u = inconclusive; x = not tested or not shown; & = joins results of further samples. A portion of the library. The share of hits here may be higher or lower than overall.

SMILES | Vaccinia inh | Vaccinia inh Venus
CS(=O)(=O)N1[C@@H]2Cn3c(cccc3=O)[C@H]1[C@@H](C(=O)NCc1ccccc1)[C@@H]2CO | -3.9 | -0.4
COc1ccc(S(=O)(=O)Nc2ccc3c(c2)C(=O)N([C@H](C)CO)C[C@H](C)[C@H](CN(C)CC2CC2)O3)cc1 | 9.5 | 8.2
O=C(C[C@H]1C[C@@H]2c3cc(NC(=O)C4CCC4)ccc3O[C@@H]2[C@@H](CO)O1)NCc1ccc2c(c1)OCO2 | -0.2 | 6.4
CO[C@H]1CN(C)C(=O)c2cc(NC(=O)Cc3ccccc3)ccc2OC[C@@H](C)N(C)C[C@H]1C | -3.4 | -4.1
O=C1CN(Cc2ccc(F)cc2)C[C@@H]2[C@@H](c3ccc(-c4ccccc4F)cc3)[C@@H](CO)N12 | -31.7 | -30.2
C/C=C/c1cnc2c(c1)C(=O)N([C@H](C)CO)C[C@@H](C)[C@H](CN(C)C(=O)c1cccc(F)c1)O2 | 7.6 | 0.0
C[C@@H]1CN([C@H](C)CO)C(=O)c2cc(NC(=O)Nc3cccc4ccccc34)ccc2O[C@H]1CN(C)Cc1ccc2c(c1)OCO2 | -14.6 | -9.1
C/C=C/c1ccc([C@@H]2[C@H](CO)N3CCCCN(C(=O)Cc4cccnc4)C[C@@H]23)cc1 | -3.1 | -1.2
Cc1ccc(S(=O)(=O)N2[C@@H]3CNC[C@H]2C3c2ccc(-c3ccc(C(=O)N(C)C)cc3)cc2)cc1 (stereo partly drawn) | -15.5 | -12.5
C[C@H]1CN([C@@H](C)CO)C(=O)c2cc(NC(=O)Cn3cnnn3)ccc2O[C@@H]1CN(C)S(=O)(=O)c1ccccc1 | 6.5 | 3.5

SMILES | Vaccinia inh | Vaccinia inh Venus
CN(C)CC(=O)Nc1ccc2c(c1)[C@@H]1C[C@H](CC(=O)NC3CCCCC3)O[C@@H](CO)[C@@H]1O2 | 1.6 | 5.2
C[C@@H]1CN([C@H](C)CO)S(=O)(=O)c2ccc(-c3ccncc3)cc2O[C@@H]1CN(C)C(=O)C1CC1 | 5.0 | 0.8
COCC#Cc1ccc2c(c1)O[C@@H](CN(C)S(=O)(=O)c1ccc(OC)cc1)[C@@H](C)CN([C@H](C)CO)S2(=O)=O | -11.0 | -8.9
CN1C(=O)c2cc(NC(=O)c3cccc(F)c3)ccc2OC[C@@H]2O[C@H](CC(=O)NCC3CC3)CC[C@@H]21 | -12.9 | -10.8
Cc1noc(C)c1S(=O)(=O)Nc1ccc2c(c1)CC(=O)N([C@@H](C)CO)C[C@@H](C)[C@H](CN(C)Cc1ccccc1)O2 | -16.9 | -9.5
COc1ccc(-c2ccc(C3[C@@H]4CN(S(=O)(=O)c5cccc(C)c5)C[C@H]3N4)cc2)cc1 (stereo partly drawn) | u | -13.1
C[C@@H]1CN([C@H](C)CO)S(=O)(=O)c2ccc(C3=CCCC3)cc2O[C@@H]1CN(C)C(=O)C1CCC1 | -9.0 | 4.6
COc1ccc(CN(C)C[C@H]2Oc3c(NC(=O)NC(C)C)cccc3C(=O)N([C@H](C)CO)C[C@H]2C)cc1 | 17.1 | 9.5
CC(C)C#Cc1cnc2c(c1)C(=O)N([C@@H](C)CO)C[C@H](C)[C@H](CN(C)C(=O)Nc1cccc(F)c1)O2 | 10.6 | -5.5
C[C@@H]1CN([C@@H](C)CO)C(=O)c2cccc(NC(=O)Nc3ccc(F)cc3)c2O[C@@H]1CN(C)C(=O)Nc1ccc(F)cc1 | -22.2 | -15.2

SMILES | Vaccinia inh | Vaccinia inh Venus
C[C@H](NC(=O)C[C@@H]1CC[C@H]2[C@@H](COc3ccc(NC(=O)C4CCOCC4)cc3C(=O)N2C)O1)c1ccccc1 | 14.0 | 9.7
O=C(Nc1cc(F)ccc1F)N[C@H]1CC[C@@H](CCn2cc(C3CCCC3)nn2)O[C@H]1CO | -15.1 | -7.3
Cc1noc(C)c1NC(=O)Nc1ccc2c(c1)C(=O)N([C@@H](C)CO)C[C@@H](C)[C@H](CN(C)C(=O)Nc1ccc(F)cc1)OCCCC[C@@H](C)O2 | 22.8 | 4.9
COc1ccc(CN(C)C[C@@H]2Oc3c(NC(=O)c4ccc(-c5nccs5)cc4)cccc3C(=O)N([C@@H](C)CO)C[C@H]2C)cc1 | u | x
C[C@H](CO)N1C[C@H](C)[C@H](CN(C)C(=O)CN(C)C)Oc2ncc(-c3ccc(F)cc3)cc2C1=O | -1.0 | -1.8
COCC#Cc1ccc2c(c1)O[C@@H](CN(C)C(=O)C1CC1)[C@@H](C)CN([C@@H](C)CO)S2(=O)=O | 18.2 | 3.3
CC(C)NC(=O)N(C)C[C@H]1Oc2cc(C#C[C@H](C)O)ccc2S(=O)(=O)N([C@H](C)CO)C[C@@H]1C | 9.0 | 3.7
O=C(Cc1cccnc1)N1CCCCN2[C@H](CO)[C@@H](c3ccc(C#CC4CC4)cc3)[C@@H]2C1 | 19.9 | 3.8
COC(=O)C[C@@H]1CC[C@@H]2[C@H](COc3ccc(NC(=O)Nc4c(C)noc4C)cc3C(=O)N2C)O1 | 6.7 | 5.9
Cc1cc(C(=O)Nc2cccc3c2O[C@@H](CN(C)CC2CC2)[C@@H](C)CN([C@@H](C)CO)C3=O)n(C)n1 | -5.1 | -0.8

SMILES | Vaccinia inh | Vaccinia inh Venus
C[C@H](CO)N1C[C@H](C)[C@@H](CN(C)C(=O)NC2CCCCC2)Oc2c(NC(=O)Nc3ccc4c(c3)OCO4)cccc2C1=O | 3.2 | 4.6
C[C@@H]1CN([C@H](C)CO)C(=O)Cc2cc(NC(=O)C3CC3)ccc2O[C@H]1CN(C)S(=O)(=O)c1ccc(F)cc1 | 10.0 | 12.0
COCC(=O)N(C)C[C@@H]1Oc2ncc(C#CCC3CCCC3)cc2C(=O)N([C@H](C)CO)C[C@H]1C | 4.7 | 2.4
C[C@@H]1CN([C@@H](C)CO)C(=O)c2cccc(NC(=O)Nc3ccccc3)c2O[C@@H]1CN(C)Cc1ccc(C(F)(F)F)cc1 | -34.9 | -21.5
CC(C)NC(=O)N(C)C[C@H]1OCCCC[C@@H](C)Oc2ccc(NC(=O)Nc3ccc4c(c3)OCO4)cc2C(=O)N([C@H](C)CO)C[C@@H]1C | 25.0 | 8.6
O=C(N[C@@H]1CC[C@H](CCNS(=O)(=O)c2ccc(Cl)cc2)O[C@@H]1CO)c1cccc(F)c1 | -0.5 | -7.8
C[C@H](CO)N1C[C@H](C)[C@@H](CN(C)C(=O)Nc2ccc3c(c2)OCO3)Oc2ccc(NS(=O)(=O)c3cn(C)cn3)cc2CC1=O | 25.6 | 5.6
C[C@H]1CN([C@@H](C)CO)C(=O)CCCn2nncc2CO[C@@H]1CN(C)C(=O)NC1CCCCC1 | 6.4 | 2.0
CCC(=O)N1CC2(C1)[C@H](c1ccccc1)[C@@H](CO)N2CC1CCOCC1 | 39.4 | 26.8
C[C@@H]1CN([C@H](C)CO)S(=O)(=O)c2ccc(-c3cccc(C(=O)N(C)C)c3)cc2O[C@H]1CN(C)C(=O)Cc1ccccn1 | 3.2 | 1.5

SMILES | Vaccinia inh | Vaccinia inh Venus
C[C@@H]1CN([C@@H](C)CO)C(=O)Cc2cc(NC(=O)Cc3cn(C)c4ccccc34)ccc2O[C@@H]1CN(C)S(=O)(=O)c1ccc(F)cc1 | -21.2 | -11.1
COc1ccc(S(=O)(=O)Nc2ccc3c(c2)C(=O)N([C@@H](C)CO)C[C@@H](C)[C@H](CN(C)C(=O)NC2CCCCC2)OCCCC[C@H](C)O3)cc1 | -27.2 | -19.2
C=CCOC(=O)[C@H]1[C@@H]2C(=O)O[C@@H](c3ccccc3)[C@@H](c3ccccc3)N2[C@@H](c2ccc(OCCOC(=O)[C@H]3C[C@H]4C(=O)N[C@@H](CC(C)C)C(=O)N4[C@H]3c3ccc(O)cc3)cc2)[C@]12C(=O)Nc1ccccc12 | 2.3 | -4.1
CO[C@H]1CN(C)C(=O)c2ccc(NC(=O)C3CC3)cc2OC[C@@H](C)N(C(=O)C2CCCCC2)C[C@@H]1C | -5.0 | 2.4
C/C=C/c1ccc2c(c1)O[C@H](CN(C)C(=O)c1cccc(F)c1)[C@@H](C)CN([C@@H](C)CO)S2(=O)=O | -19.2 | -13.1
O=C(C[C@H]1C=C[C@@H](NC(=O)c2cnccn2)[C@@H](CO)O1)NCc1ccccc1F | -3.9 | 11.6
O=C(C1CC1)N1C[C@H]2[C@@H](c3ccccc31)[C@@H](CO)N2C(=O)c1ccccc1F | 15.3 | 8.8
Cc1noc(C)c1S(=O)(=O)N(C)C[C@@H]1OCCCC[C@H](C)Oc2ccc(NC(=O)C3CCCCC3)cc2C(=O)N([C@@H](C)CO)C[C@H]1C | -16.9 | -13.8
O=C(C[C@@H]1C=C[C@H](NC(=O)CC2CC2)[C@H](CO)O1)NCc1ccccc1 | 10.8 | 1.9
COc1ccc2c3c(n(C)c2c1)[C@@H](CO)N(C(=O)Nc1ccc(F)cc1)CC31CCN(Cc2ccccc2F)CC1 | u | x

SMILES | Vaccinia inh | Vaccinia inh Venus
CCCC(=O)Nc1ccc2c(c1)C(=O)N(C)C[C@@H](OC)[C@H](C)CN(C(=O)c1cnccn1)[C@H](C)CO2 | 16.5 | 3.2
C[C@H](CO)N1C[C@H](C)[C@H](CN(C)CC2CCCCC2)OCc2cn(nn2)CCCC1=O | 8.7 | 12.3
CCS(=O)(=O)Nc1ccc2c(c1)C(=O)N(C)[C@H]1CC[C@@H](CC(=O)NC)O[C@@H]1CO2 | 4.0 | 0.8
COc1ccc(NC(=O)N(C)C[C@H]2Oc3ccc(NC(=O)Nc4c(C)noc4C)cc3C(=O)N([C@H](C)CO)C[C@@H]2C)cc1 | 11.5 | 10.3
O=C(C[C@@H]1CC[C@H](NC(=O)CCN2CCCCC2)[C@@H](CO)O1)Nc1ccccc1 | 11.2 | 9.6
COCC(=O)Nc1ccc2c(c1)OC[C@@H](C)N(C(=O)c1cccnc1)C[C@H](C)[C@H](OC)CN(C)C2=O | 8.5 | 4.1
C[C@@H](NC(=O)C[C@H]1C[C@@H]2c3cc(NC(=O)c4cccnc4)ccc3O[C@@H]2[C@H](CO)O1)c1ccccc1 | -2.1 | -1.9
C[C@H]1CN([C@@H](C)CO)C(=O)c2c(c3ccccc3n2C)-c2ccccc2CO[C@H]1CN(C)S(=O)(=O)c1ccc(Cl)cc1 | -34.2 | -34.3
CCCNC(=O)N(C)C[C@@H]1Oc2cc(C#CCN(C)C)ccc2S(=O)(=O)N([C@H](C)CO)C[C@@H]1C | 1.1 | -6.1
C[C@@H]1CN([C@H](C)CO)C(=O)c2cccc(NC(=O)C3CC3)c2O[C@@H]1CN(C)C(=O)Nc1ccc2c(c1)OCO2 | 9.9 | 15.2

SMILES | Vaccinia inh | Vaccinia inh Venus
C[C@@H]1CN([C@@H](C)CO)C(=O)c2cccc(NC(=O)C3CCCCC3)c2O[C@@H]1CN(C)Cc1ccc(Oc2ccccc2)cc1 | 1.5 | 9.5
Cc1ccc(S(=O)(=O)Nc2ccc3c(c2)C(=O)N([C@H](C)CO)C[C@H](C)[C@@H](CN(C)C(=O)Nc2c(C)noc2C)OCCCC[C@H](C)O3)cc1 | 19.0 | 9.3
O=C(NC1CCCCC1)N1CC(=O)N2[C@H](CO)[C@@H](c3ccc(-c4cccc(F)c4)cc3)[C@@H]2C1 | -31.8 | -49.2
C[C@H](CO)N1C[C@H](C)[C@H](CN(C)CC2CCCCC2)Oc2c(NC(=O)NC3CCCCC3)cccc2C1=O | 22.3 | 21.3
C[C@@H]1CCCCO[C@H](CN(C)C(=O)c2ccccc2)[C@@H](C)CN([C@@H](C)CO)C(=O)c2cc(NC(=O)Nc3ccc(C(F)(F)F)cc3)ccc2O1 | -22.5 | -6.0
C[C@H](CO)N1C[C@H](C)[C@H](CN(C)CC2CC2)Oc2ccc(NC(=O)C3CCCCC3)cc2C1=O | -7.0 | -7.5
CN1C(=O)c2cc(NS(=O)(=O)c3ccc(Cl)cc3)ccc2OC[C@@H]2O[C@@H](CC(=O)N3CCc4ccccc4C3)CC[C@H]21 | -24.1 | -17.7
OC[C@H]1[C@H](c2ccc(C#Cc3cccnc3)cc2)[C@H]2CN(Cc3ccccc3F)CCCCN21 | -22.5 | -44.8
O=C(NC1CCC1)[C@H]1N[C@H]2c3ccc(-c4cccc(F)c4)c(=O)n3C[C@H]2[C@@H]1CO | 18.0 | 5.2
O=S(=O)(c1ccccc1F)N1C[C@@H]2N[C@H](C1)C2c1ccc(/C=C/c2ccccc2)cc1 (stereo partly drawn) | 26.2&9.8 | 13.3&3.9

SMILES | Vaccinia inh | Vaccinia inh Venus
C[C@H](CO)N1C[C@H](C)[C@@H](CN(C)Cc2ccc(C(=O)Nc3ccccc3N)cc2)Oc2ccc(NC(=O)Nc3cccc4ccccc34)cc2C1=O | 34.5 | 13.0
C[C@H](CO)N1C[C@H](C)[C@H](CN(C)S(=O)(=O)c2cccs2)Oc2ccc(NS(C)(=O)=O)cc2C1=O | 6.0 | 5.5
COc1ccc(S(=O)(=O)N(C)C[C@H]2Oc3c(NC(=O)NC(C)C)cccc3C(=O)N([C@@H](C)CO)C[C@H]2C)cc1 | 4.9 | -1.0
O=C(C[C@H]1CC[C@@H]2[C@H](COC[C@H](O)CN2Cc2ccc(Cl)cc2)O1)Nc1nccs1 | -16.3 | -5.4

Quoted at random: 4 records from the list, in no set order.
SMILES | Vaccinia inh | Vaccinia inh Venus
C[C@H](CO)N1C[C@H](C)[C@@H](CN(C)Cc2ccc(C(=O)Nc3ccccc3N)cc2)Oc2ccc(NC(=O)Nc3cccc4ccccc34)cc2C1=O | 34.5 | 13.0
COc1ccc(S(=O)(=O)N(C)C[C@H]2Oc3c(NC(=O)NC(C)C)cccc3C(=O)N([C@@H](C)CO)C[C@H]2C)cc1 | 4.9 | -1.0
C[C@H](CO)N1C[C@H](C)[C@H](CN(C)S(=O)(=O)c2cccs2)Oc2ccc(NS(C)(=O)=O)cc2C1=O | 6.0 | 5.5
O=C(C[C@H]1CC[C@@H]2[C@H](COC[C@H](O)CN2Cc2ccc(Cl)cc2)O1)Nc1nccs1 | -16.3 | -5.4
